Screens from PubChem BioAssay.
Bfl-1 A1 inh: caspase 3/7 activation in MEF A1-2A-BIM cells, primary screen, A1 inhibitor project, cell-based, luminescence, HTS; Caspase-Glo 3/7 luminescence, 3 h; percent of clofoctol response, vehicle zero; caspase activation, % (concentration not given with the values); 330,000 compounds, 0.066% hits;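 active = over half of replicate activation scores above 10%, or exactly half above 10 with the replicate mean above 10; inconclusive = replicate mean below 10 yet half the replicates above 10; inactive = over half of replicates below 10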;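 also: wells of about 30 µL received 50 nL stock; many hits fall short of the cut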
AF4-AF9 inh: inhibitors of AF4 peptide binding to AF9, primary screen, biochemical, AlphaScreen, biotin-AF4 peptide, FLAG-AF9, single point | Protein AF-9 (Homo sapiens), P42568 | inhibition, % at 10 µM | 350,000 compounds, 0.47% hits;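 active = every replicate reaching a set inhibition limit, whatever the replicate mean, cut at about 25% in these data; inconclusive = mean inhibition reaches that limit but some replicates miss it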;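 also: 0% = plate neutral control median and 100% = total signal loss; the record names both 10 and 1 µM as test concentration; the first replicate is given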
Target sequence (P42568 whole entry, looked up): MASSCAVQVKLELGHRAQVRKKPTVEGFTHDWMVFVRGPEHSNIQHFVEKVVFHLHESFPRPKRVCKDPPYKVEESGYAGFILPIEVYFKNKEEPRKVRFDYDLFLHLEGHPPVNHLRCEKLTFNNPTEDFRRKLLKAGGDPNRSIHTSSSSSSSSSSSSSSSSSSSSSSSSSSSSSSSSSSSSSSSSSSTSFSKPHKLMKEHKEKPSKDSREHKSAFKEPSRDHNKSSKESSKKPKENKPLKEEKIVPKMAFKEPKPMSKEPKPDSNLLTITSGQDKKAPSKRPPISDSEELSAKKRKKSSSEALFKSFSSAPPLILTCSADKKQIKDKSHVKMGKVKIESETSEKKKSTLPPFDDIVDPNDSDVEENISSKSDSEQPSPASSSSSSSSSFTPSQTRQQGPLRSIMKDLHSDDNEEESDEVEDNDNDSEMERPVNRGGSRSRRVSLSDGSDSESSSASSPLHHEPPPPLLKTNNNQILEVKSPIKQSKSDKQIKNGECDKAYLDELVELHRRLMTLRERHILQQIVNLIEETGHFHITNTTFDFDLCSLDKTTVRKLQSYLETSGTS
Calb FLC: C. albicans growth inhibition with fluconazole, primary screen, CaCi-2 strain, Alamar Blue fluorescence; C. albicans CaCi-2 (fluconazole-resistant clinical isolate) + fluconazole, 48 h; growth inhibition, % (test concentration not listed); 300,000 compounds, 0.57% hits;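 active = most replicates above 75%; inconclusive = exactly half above 75%; inactive = most below 75%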;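 also: all wells also contain fluconazole at 8 µg/ml as a sub-toxic cotreatment; 0% = median of DMSO wells and 100% = median of geldanamycin control wells; wells of about 8 µL received 7.5 nL stock; the first replicate is given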
RanGTP-Imp inh: inhibitors of RanGTP-importin-beta interaction, primary screen, biochemical, FRET, CFP-Ran, YFP-importin-beta, homogeneous; cell-free CFP-Ran/YFP-importin-beta FRET ratio; inhibition, % (concentration not given with the values); 300,000 compounds, 1.1% hits;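 active = most replicates above 15%; inconclusive = exactly half above 15%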;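 also: 0% = DMSO wells and 100% = Ran loaded with GDP instead of GTP; wells of about 40 µL received 100 nL stock; the first replicate is given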
T cruzi inh: inhibitors of intracellular T. cruzi growth, primary screen, luminescence, NIH3T3 host cells | AID 1885, 2009 | T. cruzi beta-gal in NIH3T3, 90 h | 300,000 compounds, 1.4% hits | inhibition, % (concentration not given with the values);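 active = mean inhibition across valid replicates above about 55%, limit read from the data; inconclusive = mean below that limit but half or more replicates reach it; inactive = mean below it, under half of replicates reach it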;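 also: signal also drops with host cell toxicity which is not excluded here; 0% = plate median of DMSO wells and 100% = zero luminescence signal; higher percent means less beta-gal luminescence so fewer parasites; stock transfer was 50 nL into about 50 µL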
Beta apoptosis: inhibitors of cytokine-induced beta cell apoptosis, primary screen, luminescence | INS-1E cytokine-induced death, ATP luminescence, 48 h; percent of positive-control rescue, neutral wells zero | protection from apoptosis, % (test concentration not listed) | 300,000 compounds, 0.8% hits | AID 435005, 2010;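 active = all replicates at 75% or more, or half of them and the mean; inconclusive = half reach 75% but not the mean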;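 also: 0% = cytokine-treated negative control wells and 100% = positive control rescue; higher means more ATP so stronger rescue from cytokine killing; wells of about 40 µL received 100 nL stock; the first replicate is given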
rRNA inh HTS: reduced GFP signal of wild-type E. coli, primary screen, bacterial rRNA inhibitor project, GFP/RFP fluorescence, OD600, single point. 350,000 compounds, 1.6% hits. GFP signal change (wild-type ribosome), % (concentration not given with the values). E. coli WT GFP vs humanized-ribosome RFP mutants, 24 h; hits give low values; DMSO median 0, no signal -100;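 active = significant combined selectivity score with lowered wild-type GFP, culture density cut under 30%, mutant RFP and density less affected; inactive = any of these conditions unmet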; also: one replicate is shown; some compounds called inactive have numbers as strong as hits
Vif A3G: inhibitors of Vif binding to APOBEC3G peptide, primary screen, biochemical, TR-FRET, GST-Vif 1-94, biotin-A3G peptide, dose response retest (AID 1117319) | Virion infectivity factor (Human immunodeficiency virus type 1 group M subtype B (isolate … | TR-FRET GST-Vif / biotin-A3G peptide binding; higher % means a stronger effect; test concentration not given here; strong numbers were not always called active | one-dose inhibition, %; IC50 in µM for titrated hits | 260,000 compounds, 0.57% hits;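 active = above the screen mean plus three standard deviations and confirmed in dose response; inconclusive = results disagree or hit not tested in dose response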;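 also: Vif residues 1-94 fused to GST binding biotinylated APOBEC3G peptide 110-148; 0% = full assay without inhibitor and 100% = GST in place of GST-Vif; retest series ran down from 100 µM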
rRNA inh HTS OD600: second read-out of rRNA inh HTS, no call of its own (marks repeat the call); OD600 change, %; measured here: OD600 growth;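 optical density of the mix in the first replicate; 0 = DMSO median and -100 = no signal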
rRNA inh HTS RFP: further read-out of rRNA inh HTS, marked with its call; RFP signal change, %; measured here: RFP humanized mutant strains;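 first replicate; 0 = DMSO median and -100 = no signal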
* hit, by the source's call; ? = inconclusive; / = no result given. This is a subset; rates above refer to the full screens.

Each structure is followed by: Bfl-1 A1 inh, rRNA inh HTS OD600, Vif A3G, Beta apoptosis, T cruzi inh, rRNA inh HTS, AF4-AF9 inh, Calb FLC, rRNA inh HTS RFP, RanGTP-Imp inh
> COC(=O)C1=C(C)Nc2[nH]c(=S)[nH]c(=O)c2C1c1ccc(OC)cc1 (stereo unspecified)
    0.0, 10, -2%, 2, 5, 2, -4.2, -10, -2.2, 0.7
> COc1ccc(-c2c(C)nn3c(N4CCC5(CC4)OCCO5)cc(C)nc23)cc1OC
    -0.4, /, -2%, 9, 3, /, /, 11, /, -0.5
> O=C(CN(Cc1ccc(Br)cc1)S(=O)(=O)c1ccccc1)NCc1ccccn1
    0.7, -24, 15%, /, 2, -20, -1.0, 13, -1.6, -1.5
> CN(c1ccc(S(=O)(=O)N2CCOCC2)cn1)C1CCCCC1
    0.2, /, 3%, -4, 0, /, /, 3, /, -3.6
> C=C(C)C1CC=C(C)/C(=N/NC(=O)COc2cccc3ccccc23)C1 (stereo unspecified)
    0.1, /, -2%, /, 33, /, /, -3, /, 5.3
> COc1cc(OC)cc(-n2nnnc2SCC(=O)NCCc2ccc(OC)c(OC)c2)c1
    0.7, -29, 0%, 0, -1, -20, -1.5, -4, -2.5, 4.3
> Cc1ccc(C(=O)c2ccc(C)cc2)cc1
    0.7, 4, 0%, -4, -9, 13, 3.4, -4, 1.0, 0.1
> Cc1ccc(CN2C(=O)CSc3ccc(C(=O)NC4CC4)cc32)cc1
    -0.6, -13, -5%, 0, 19, -13, -1.0, -34, -2.0, 0.2
> N#CC1=C(N)C(C#N)(C#N)C2(CCC3(CC2)OCCO3)C2CC3(CC=C12)OCCO3 (stereo unspecified)
    0.5, /, 7%, -2, -3, /, /, 6, /, -7.4
> CCN(CC)S(=O)(=O)c1ccc(/C=C/C(=O)OCC(=O)NNC(=O)c2ccc(OC)cc2)cc1
    0.2, -10, /, -3, /, -8, 0.9, /, 1.8, /
> O=C(O)C1CCCCC1C(=O)NCCC(c1ccccc1)c1ccccc1 (stereo unspecified)
    0.1, /, ?, -3, -10, /, /, 2, /, ?
> Cc1ccc(-c2nc3ccccc3s2)cc1S(=O)(=O)N1CCOCC1
    0.1, /, 10%, -7, 11, /, /, 2, /, 1.4
> Cc1cc2c(cc1C)CSC(c1c(O)ccc3ccccc13)SC2
    0.5, /, -3%, 7, 7, /, /, 61, /, -1.6
> CCCC(=O)c1cc(F)c(N2CCN(S(=O)(=O)c3ccccc3)CC2)cc1C
    1.2, /, 2%, 17, 25, /, /, 13, /, 2.6
> O=C(O)CCCCCn1c(SCc2cc(=O)n3ccccc3n2)nc2ccsc2c1=O
    -0.2, -20, 3%, -3, -15, -6, -5.0, -7, -6.9, 1.3
> Cc1cc(/C=C(\C#N)C(=O)NCc2ccccc2)cc(C)c1O
    -0.3, -1, /, /, -9, -3, 1.3, 15, 3.0, 4.9
> CCC(=O)Nc1ccccc1C(=O)OC(c1ccccc1)c1ccccc1
    0.5, /, /, 4, 9, /, /, -7, /, 1.6
> CCOC(=O)C1=C(C)Nc2nc(C)nn2C1c1cc(OC)ccc1OC (stereo unspecified)
    0.3, 0, 3%, 1, -28, -1, -1.8, 1, -2.5, ?
> CC(NC(=O)OCc1ccccc1)c1ccccc1 (stereo unspecified)
    -0.6, -5, /, 3, -15, 3, -4.3, -3, 0.3, -0.5
> CCn1c(SCC(=O)c2ccc3ccccc3c2)nnc1-c1cccs1
    -0.5, /, 15%, -7, -5, /, /, 1, /, ?
> CCOC(=O)CSc1nc(-c2ccccc2)nc2ccccc12
    0.6, /, 20%, -4, -6, /, /, 5, /, 0.0
> COc1cc(C)ccc1OCC(=O)Nc1ccc2c(c1)OCO2
    0.2, -17, -5%, -1, /, -15, -2.0, /, -7.3, /
> NC(=O)c1ccc(NC(=O)CN2C(=O)NC3(CCCCCCC3)C2=O)cc1
    1.4, -1, -2%, 6, /, -4, 0.4, /, -1.3, /
> Cn1c(CNc2nc(-c3ccccc3)cs2)nnc1SCC(=O)OC1CCCCC1
    0.5, /, 13%, -4, -6, /, /, -2, /, 6.8
> Cc1ccc(Cn2c(Cc3ccccc3)nc3ccccc32)cc1
    0.4, /, -5%, 1, 13, /, /, 2, /, -0.3
> Cc1ccc(S(=O)(=O)Nc2nc(CN3CCOCC3)nc3sc(C)c(C)c23)cc1
    0.0, -7, -3%, -1, /, -1, -1.2, /, 2.0, /
> CN(C)/C=c1\sc2c(C#N)cc(C(=O)c3ccc(Br)cc3)n2c1=O
    0.2, /, 25%, 8, 10, /, /, 2, /, -26
> CCCCn1nnnc1NCc1cc(Cl)c(OC)c(OC)c1
    1.2, -8, 4%, 1, -18, -7, -2.2, -12, -0.6, 6.0
> CN(C(=O)COC(=O)CCC(=O)c1ccc(F)cc1)C1CCCCC1
    0.0, -9, -6%, -8, /, -9, -0.2, /, -3.3, /
> O=C(Nc1ccccc1F)C1COc2ccccc2O1 (stereo unspecified)
    1.7, -2, /, 4, -2, 0, 2.5, -3, 2.4, -1.4
> Cc1cc(NC(=O)CSc2nnc(-c3ccc(Cl)s3)o2)no1
    0.7, /, 30%, 2, -29, /, /, -13, /, 4.3
> Cc1cc(C(=O)OCC(=O)Nc2cccc(S(=O)(=O)N3CCOCC3)c2)c(C)o1
    -0.4, /, -4%, -4, 3, /, /, 3, /, -1.7
> Cc1ccc(C(=O)Nc2ccc3c(c2)OCO3)cc1S(=O)(=O)N1CCCC1
    0.9, /, 1%, 6, 3, /, /, -3, /, -3.2
> O=C(CSc1nc2ccccc2s1)N1CCN(C(=O)c2ccco2)CC1
    -0.3, /, -4%, 5, -3, /, /, -6, /, -0.9
> COc1ccc(CC(NC(C)=O)C(=O)NC2CCN(C(=O)C3CCCCC3)CC2)c(OC)c1 (stereo unspecified)
    1.1, 9, /, /, -6, -1, 5.2, -9, -1.8, 3.9
> C#CCOCCOCCOCCNc1nc(N2CCN(C(=O)CCCCCCCCCCNC(=O)Cn3cc(C[C@@H](C)O)nn3)CC2)nc(N2CCN(C(=O)CCCCCCCCCCNC(=O)[C@@H](CCC(=O)O)n3cc(CCCCCN)nn3)CC2)n1
    0.1, -18, /, 1, /, -2, 8.2, /, 30, /
> Cn1c(=O)c2c(nc(Oc3ccccc3N)n2C)n(C)c1=O
    -0.4, 6, /, 1, -17, 3, 0.1, 0, 0.5, 0.9
> CC(=O)c1sc(NC(=O)c2ccc3c(c2)OCO3)nc1C
    -0.5, 2, /, 5, -16, 6, -5.5, 19, 0.1, 1.0
> CCOc1ccc2nc(N3CCC(C(=O)NC4CCCCC4)CC3)sc2c1
    1.3, 9, /, 6, -2, 4, 0.1, -24, -2.4, 0.0
> COc1cc(C(=O)NCc2nnc(SCC(=O)N3CCCCCC3)o2)cc(OC)c1OC
    0.0, 1, /, -1, 12, 1, 0.0, 1, -1.4, 2.4
> O=C(Nc1ccc(Br)cc1)c1cnc[nH]1
    -1.1, 2, /, -3, 12, 3, 0.6, 4, -3.9, 1.6
> O=C(COC(=O)CCOc1ccccc1)NCCC1=CCCCC1
    -1.0, -1, -5%, -3, -4, -9, -1.3, -5, -7.2, -3.9
> Cn1c(=O)[nH]c(=O)c2c1nc1n2CCCS1
    -0.2, /, 21%, -9, -15, /, /, -2, /, 0.5
> COc1ccc(Cl)cc1NC(=O)CN(C)C(=O)c1ccc2n[nH]nc2c1
    ?, /, -11%, 3, /, /, -1.3, /, /, /
> CC1CCN(c2c(NCC3CCC(C(=O)NCc4ccc(F)cc4)CC3)c(=O)c2=O)CC1 (stereo unspecified)
    0.9, 9, 0%, -1, -13, 5, -4.1, 6, -9.0, 1.6
> Cc1onc(-c2ccccc2Cl)c1C(=O)Nc1sc2c(c1C(N)=O)CCC(C)C2 (stereo unspecified)
    0.5, /, 10%, -4, 26, /, /, ?, /, -2.3
> COCCn1c(=O)c2c(nc3n2CC(C)CN3Cc2ccccc2)n(C)c1=O (stereo unspecified)
    -0.5, -5, /, 3, -10, -3, -9.1, -12, -0.6, 3.9
> Cc1ccc(Oc2nc3c(c(=O)n(Cc4ccccc4F)c(=O)n3C)n2C)cc1
    -0.4, 3, 0%, 30, 8, 2, /, -15, -1.9, 1.5
> O=C(CSc1nc(-c2cccs2)cc(C(F)(F)F)n1)NCCCN1CCOCC1
    -0.2, -2, -4%, /, -8, 14, -2.1, 3, -1.4, 0.0
> COc1ccc(C(=O)c2sc(Nc3ccccc3)nc2C)cc1
    0.7, -76, -8%, /, 27, -47, 6.9, -13, -11, -0.3
> Cc1ccc(C)c(NC(=O)CN(C)C(=O)c2cc3ccccc3oc2=O)c1
    -1.8, 11, /, -4, /, 1, -1.5, /, -1.5, /
> CC(=O)Nc1cccc(C(=O)N2CCC(n3nccc3NC(=O)CC(C)C)CC2)c1
    0.3, 19, /, -3, -2, 8, -3.1, 6, 0.7, 6.8
> CC(C)C(=O)Nc1ccc(C(=O)NCc2cccnc2)cc1
    0.4, 13, 13%, 107*, 30, 8, /, -1, 0.1, 1.8
> CCc1nnc(NS(=O)(=O)c2ccc(NC(=O)/C=C/C(=O)O)cc2)s1
    -0.5, 15, -1%, -4, 3, 20, -2.7, 3, 2.3, 6.8
> O=C(CN1C(=O)S/C(=C\c2ccc(F)cc2)C1=O)Nc1cccc(S(=O)(=O)NCc2ccco2)c1
    -0.2, 5, /, -5, 15, -2, -1.1, 0, 6.4, 2.6
> CCc1oc(C(=O)OC)cc1CSC(=N)N
    -0.3, 5, 0%, -11, -17, 8, 0.1, -1, -2.6, -3.0
> CC(NC(=O)c1cc([N+](=O)[O-])cc([N+](=O)[O-])c1)c1ccc(-n2ccnc2)cc1 (stereo unspecified)
    -0.1, 4, -3%, 1, 47, 6, -2.4, -2, 12, -3.7
> Cc1nnsc1C(=O)NC(=O)Nc1ccc(F)c(Cl)c1
    -5.3, /, -4%, -1, -18, /, -2.7, 0, /, -0.8
> CC1(C)SC2c3ccccc3C(=O)N2[C@@H]1C(=O)NC1CCCC1 (stereo partly specified)
    -0.2, 5, /, /, -1, 7, -2.0, 0, 1.9, 0.7
> Cc1ccc(-c2cc(-c3ccccc3Cl)[nH]n2)c(O)c1
    -1.5, /, -5%, 19, 12, /, /, 0, /, 0.9
> CN(C)c1ccc(P(=O)(OC2CCCCC2)C(Nc2ccccc2)c2cccnc2)cc1 (stereo unspecified)
    -0.4, /, -14%, -2, 17, /, 3.2, -4, /, -2.6
> CCCCCCCCCCCCN1[C@@H](CC(C)=O)c2cc(C(F)(F)F)ccc2S1(=O)=O
    0.7, /, /, 0, ?, /, /, -16, /, -1.8
